From PubChem BioAssay
HIV Env fusion – inhibitors of HIV-1 Env-driven cell-cell fusion, primary screen, HeLa-JRFL effector, CEM21 target cells, luciferase; inhibition, % at 12.3 µM; 360,000 tested, 1.1% active;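 active means mean replicate inhibition score of at least 50 and every replicate individually at or above 50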;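 further: 0% = plate neutral controls and 100% = maraviroc near 300 nM; one replicate is shown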
CSC inhib – cancer stem cell viability inhibitors, primary screen, luminescence; cancer stem cell-like cells viability; inhibition, % at 7.5 µM; 300,000 tested, 1.1% active;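 active means mean at 75% or more and at least half the replicates too; tested in HMLE shEcad cells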;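 further: 0% = median of negative and 100% = median of positive control wells; the first replicate is given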
PABP FP inh – PABP poly(A) RNA binding inhibitors, primary screen, biochemical, fluorescence polarization, uHTS; Polyadenylate-binding protein 1 (Homo sapiens), P11940; inhibition, % at 35 µM; 290,000 tested, 1% active;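 active means 50% or more with normal probe brightness, or confirmed in later tests; about a fifth of its hits are not listed in these tables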;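 further: calls also rest on retests at 20 µM and on dose response follow-up; controls were probe without protein and protein plus probe with vehicle; some compounds called inactive have numbers as strong as hits; many hits fall short of the cut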
Target sequence (P11940 whole entry, looked up): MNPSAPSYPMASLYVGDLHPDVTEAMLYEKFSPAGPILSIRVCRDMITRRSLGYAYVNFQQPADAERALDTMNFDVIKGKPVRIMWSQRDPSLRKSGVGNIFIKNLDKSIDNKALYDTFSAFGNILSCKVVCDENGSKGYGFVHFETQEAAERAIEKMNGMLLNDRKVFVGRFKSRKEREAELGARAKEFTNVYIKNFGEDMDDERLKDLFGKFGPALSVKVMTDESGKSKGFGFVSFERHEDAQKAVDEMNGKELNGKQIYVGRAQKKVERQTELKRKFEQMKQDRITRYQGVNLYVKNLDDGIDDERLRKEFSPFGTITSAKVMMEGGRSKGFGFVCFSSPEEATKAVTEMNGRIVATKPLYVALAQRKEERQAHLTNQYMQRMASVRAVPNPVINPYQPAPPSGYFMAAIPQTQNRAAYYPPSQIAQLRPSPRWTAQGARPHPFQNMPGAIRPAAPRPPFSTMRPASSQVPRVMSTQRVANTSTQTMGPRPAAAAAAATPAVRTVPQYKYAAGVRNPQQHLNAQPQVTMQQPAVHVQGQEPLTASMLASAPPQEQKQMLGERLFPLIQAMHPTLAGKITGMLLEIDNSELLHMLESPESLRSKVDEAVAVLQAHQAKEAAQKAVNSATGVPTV
Rce1 inh – yeast Rce1p protease inhibitors, primary screen, biochemical, fluorescence, cell-free homogeneous; CAAX prenyl protease 2 (Saccharomyces cerevisiae (strain ATCC 204508 / S288c)), Q03530; yeast membranes, quenched prenylated peptide cleavage fluorescence; calls only; 290,000 tested, 0.27% active; AID 2563, 2010;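 active means fall in fluorescence gain of 50% or more versus controls, with final raw signal at or below 3038400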;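 further: plate controls were neutral control wells for no effect and wells lacking membranes for full effect; tested at 10 µM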
Target sequence (Q03530 whole entry, looked up): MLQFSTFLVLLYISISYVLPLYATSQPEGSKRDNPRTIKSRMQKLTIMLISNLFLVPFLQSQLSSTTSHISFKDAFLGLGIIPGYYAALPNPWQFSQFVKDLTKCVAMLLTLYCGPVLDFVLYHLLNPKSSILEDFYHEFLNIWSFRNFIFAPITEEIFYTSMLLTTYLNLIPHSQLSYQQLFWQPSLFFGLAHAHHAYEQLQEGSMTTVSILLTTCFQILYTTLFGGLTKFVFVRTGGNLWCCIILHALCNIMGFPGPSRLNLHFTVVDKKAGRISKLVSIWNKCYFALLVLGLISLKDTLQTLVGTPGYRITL
eIF4H FP inh – human eIF4H binding inhibitors, primary screen, translation initiation inhibitor project, biochemical, uHTS, fluorescence polarization; eIF4H fluorescence polarization binding assay; AID 2012, 2009; inhibition, % at 35 µM; 290,000 tested, 0.94% active; Eukaryotic translation initiation factor 4H (Homo sapiens), Q15056;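 active means 50% or more with normal probe brightness, or confirmed in later tests; about a fifth of its hits are not listed in these tables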;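 further: calls also rest on retests at 20 µM and on dose response follow-up; 0% = protein and probe with vehicle and 100% = probe without protein; strong numbers were not always called active; many hits fall short of the cut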
MT1-MMP act inh – blockers of MT1-MMP proenzyme processing, primary screen, HT1080 RFP-PRO-GFP cells, GFP/RFP fluorescence; Matrix metalloproteinase-14 (Homo sapiens), P50281; GFP/RFP ratio fluorescence, overnight; percent of plate control window, DMSO zero; GFP/RFP ratio change, % at 20 µM; 360,000 tested, 0.061% active; AID 651647, 2012;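 active means GFP/RFP ratio change of at least 30% with cell ATP level not reduced by more than half and red fluorescence within 50% of control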; further: strong numbers were not always called active
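Assay system: HT1080 RFP-PRO-GFP cells | Dosing: 20 µM single dose, 1% DMSO | Incubation: Cells overnight before dosing, compound overnight, 37 °C, 5% CO2 | Evaluation: GFP/RFP fluorescence ratio | Control set: DMSO-only wells and HT1080 RFP-L50D-GFP cell wells as references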
UUG fidelity – modulators of yeast start codon fidelity, primary screen, whole organism, S. cerevisiae, single point, plate reader; S. cerevisiae UUG-firefly luciferase reporter, luminescence/redox ratio; activity score, % at 18.7 µM; 350,000 tested, 0.13% active; AID 602363, 2012;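 active means replicate mean at a twofold rise or more, about +100% in these data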;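 further: firefly luciferase made from a UUG start codon reports start codon fidelity; reporter light over untreated wells divided by growth signal over untreated wells; some hits fall short of that in this replicate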
MT1-MMP act inh RFP – also measured in MT1-MMP act inh; calls as there; RFP signal change, %; measured here: RFP expression control read;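 0 = vehicle wells; hits needed this value within 50% of zero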
* marks the source's active call; other numbers are inactive results; i = inactive; x = no result given. A portion of the library (hit frequency here may not be typical).

SMILES	HIV Env fusion	CSC inhib	PABP FP inh	Rce1 inh	eIF4H FP inh	MT1-MMP act inh	MT1-MMP act inh RFP	UUG fidelity
Cc1csc(C)[n+]1CC(=O)c1ccccc1	3	-17	-1	i	2	-3	6	-5
O=C(NCC(=O)N(c1ccc(F)cc1)C(C(=O)NC1CCCC1)c1cccnc1)c1ccco1 (stereo unspecified)	11	10	-2	i	-9	2	9	-9
COc1cc(/C=C/C(=O)OCC(=O)Nc2c(C)n(C)n(-c3ccccc3)c2=O)ccc1OCC#N	-4	-6	-1	i	-2	2	7	x
O=C(O)CN1C(=O)C2C3CC(C2C1=O)C1C(c2ccc(F)cc2)c2sc(=O)[nH]c2SC31 (stereo unspecified)	8	-14	5	x	8	2	4	x
COc1ccccc1CC(=O)NNS(=O)(=O)c1cccc([N+](=O)[O-])c1	11	0	4	i	7	1	0	-1
COc1ccc(N/C=C(\C#N)S(=O)(=O)c2ccc(OC)cc2)cc1	3	0	5	i	2	-2	-4	-9
O=c1c(-c2ccc(Cl)cc2)coc2c(CN3CCCCC3)c(O)ccc12	1	5	11	i	0	0	4	1
O=C(N/N=C\c1cccc(Cl)c1)c1ccc(Cn2cc(Br)c([N+](=O)[O-])n2)o1	-19	9	-2	i	-5	0	-8	x
CC(=O)c1ccc(OCc2cn(CC(=O)c3ccc(O)cc3)nn2)cc1	1	x	x	x	x	-1	2	38
C=CCn1c(=O)c2c(nc(-n3nc(C)cc3C)n2C)n(C)c1=O	-8	-12	4	i	-7	-1	3	-2
Cc1nc2ccccc2n1CCOc1ccc(F)cc1	8	-13	-4	i	-8	5	-8	-4
COc1ccc(CCNC(=O)COc2ccc(S(=O)(=O)N3CCOCC3)cc2)cc1	x	-5	-4	i	-3	-3	-1	-25
CCCc1cc(=O)oc2cc(Oc3ncccn3)ccc12	38	-19	-11	i	6	2	0	-13
CC(/C=N/NC(=O)c1cc(-c2ccncc2)nc2ccccc12)=C\c1ccco1	x	x	20	x	19	-2	-6	-8
O=C(N/N=C/C=C\c1ccccc1[N+](=O)[O-])c1cc(-c2ccc3ccccc3c2)n[nH]1	-55	x	-22	i	-27	2	0	-25
COC(=O)c1ccc(N2CCN(c3ccccc3)CC2)c(N)c1	-3	4	-2	i	-3	4	-4	x
COc1ccc2occ(C(=O)c3coc4ccc(O)c(CN(C)C)c34)c2c1	-54	-3	7	i	10	-16	-1	-6
Cc1ccccc1CSc1nsc(N)n1	x	x	6	i	-3	1	4	-4
CC1(C)NC(=O)N(CC(O)COc2ccc(-c3ccccc3)cc2)C1=O (stereo unspecified)	x	-14	9	i	-2	0	-5	-7
CC(=O)NC(c1ccc(F)c(F)c1)c1nc(-c2cccc(F)c2)cs1 (stereo unspecified)	0	x	x	x	x	-1	-3	-10
CC(C)n1cnc2c(oc3ccccc32)c1=O	-5	-7	8	i	-2	-1	4	-15
CCOC(=O)N1CCN(c2cc(N(C)CCO)c([N+](=O)[O-])c3nonc23)CC1	-8	x	-10	i	-5	5	4	x
CCOC(=O)c1cnc(-n2nc(C)cc2C)nc1N1CCOCC1	-25	0	-4	i	1	3	4	-37
Cc1cccc2sc(NC(=O)CCn3cccc3)nc12	3	-16	-1	i	-4	-1	-1	x
CCOc1ccc(NC(=O)NCCCSC2CCCCC2)cc1	12	x	11	x	0	4	0	-5

Not a retest: an excerpt of the list.
SMILES	HIV Env fusion	CSC inhib	PABP FP inh	Rce1 inh	eIF4H FP inh	MT1-MMP act inh	MT1-MMP act inh RFP	UUG fidelity
O=c1c(-c2ccc(Cl)cc2)coc2c(CN3CCCCC3)c(O)ccc12	1	5	11	i	0	0	4	1
O=C(N/N=C\c1cccc(Cl)c1)c1ccc(Cn2cc(Br)c([N+](=O)[O-])n2)o1	-19	9	-2	i	-5	0	-8	x
CC(=O)c1ccc(OCc2cn(CC(=O)c3ccc(O)cc3)nn2)cc1	1	x	x	x	x	-1	2	38
C=CCn1c(=O)c2c(nc(-n3nc(C)cc3C)n2C)n(C)c1=O	-8	-12	4	i	-7	-1	3	-2
Cc1nc2ccccc2n1CCOc1ccc(F)cc1	8	-13	-4	i	-8	5	-8	-4
COc1ccc(CCNC(=O)COc2ccc(S(=O)(=O)N3CCOCC3)cc2)cc1	x	-5	-4	i	-3	-3	-1	-25
CCCc1cc(=O)oc2cc(Oc3ncccn3)ccc12	38	-19	-11	i	6	2	0	-13
CC(/C=N/NC(=O)c1cc(-c2ccncc2)nc2ccccc12)=C\c1ccco1	x	x	20	x	19	-2	-6	-8
O=C(N/N=C/C=C\c1ccccc1[N+](=O)[O-])c1cc(-c2ccc3ccccc3c2)n[nH]1	-55	x	-22	i	-27	2	0	-25
COC(=O)c1ccc(N2CCN(c3ccccc3)CC2)c(N)c1	-3	4	-2	i	-3	4	-4	x
COc1ccc2occ(C(=O)c3coc4ccc(O)c(CN(C)C)c34)c2c1	-54	-3	7	i	10	-16	-1	-6
Cc1ccccc1CSc1nsc(N)n1	x	x	6	i	-3	1	4	-4

(listing goes on)
SMILES	HIV Env fusion	CSC inhib	PABP FP inh	Rce1 inh	eIF4H FP inh	MT1-MMP act inh	MT1-MMP act inh RFP	UUG fidelity
CCCNC(=O)C1(C)CCCN(C(=O)CN2C(=O)c3ccccc3C2=O)C1 (stereo unspecified)	-1	x	x	x	x	0	4	-1
COc1ccc(-c2[nH]ncc2CN2CCN(c3ccccn3)CC2)c(OC)c1	6	2	0	i	2	5	7	-17
S=c1nc(-c2ccccc2)c(-c2ccccc2)n[nH]1	-22	-14	16	i	-19	3	0	-19
O=C(NC(=S)N1CCCc2ccccc21)c1ccc(Br)cc1	-14	-3	-2	i	28	1	-4	x
COc1cccc(NC(=O)C(=O)NCCc2ccc(F)cc2)c1	1	10	-10	i	-4	0	-3	x
CCOC(=O)[C@H]1[C@H]2COc3ccc(C)cc3[C@@H]2N2C(=O)c3cc(F)ccc3NC(=O)[C@@]12C	-43	-4	x	x	x	-4	-4	-11
COc1ccc(C(=O)N2CCN(c3ccc(NC(=O)c4cccnc4)cc3)CC2)cc1	32	2	-6	i	-5	-5	-3	1
O=C(NCCc1ccccc1)c1ccc2nc3cc(Cl)ccc3c(=O)n2c1	6	-4	0	i	-12	4	13	-12
N#Cc1ccccc1Sc1ccccc1C(=O)OCc1nnc(-c2ccccc2)o1	-1	23	5	i	-3	5	-3	-13
CC(=O)c1ccc(NC(=O)Nc2ccc(Br)cc2C)cc1	-10	-1	6	i	11	-3	-4	x
Cc1nc(C(F)(F)F)ccc1C(=O)N1CCC1(C)C(=O)NS(=O)(=O)c1ccc(F)cc1F (stereo unspecified)	-1	x	x	x	x	1	3	-6
Cc1c(C)c2ccc(OCC(=O)N3CCN(c4ccccc4)CC3)cc2oc1=O	x	-7	-1	i	-8	0	1	9
CCOC(=O)c1c(C)[nH]c(C(=O)COC(=O)[C@H](C)N2C(=O)C3CCCCC3C2=O)c1C (stereo partly specified)	-33	x	x	x	x	0	-4	-12
CCOC(=O)c1[nH]c2ccc(OC)cc2c1NC(=S)N1CCN(c2cccc(Cl)c2)CC1	-37	x	-23	i	-3	4	-3	x
O=C(CNS(=O)(=O)c1cccc(C(F)(F)F)c1)Nc1ccccc1F	-12	-12	2	i	-2	1	1	-12
O=C(NCCCn1ccnc1)C(=O)NCc1ccc(Cl)cc1	-180	60	-5	i	0	0	4	-23
CCOC(=O)N1CCN(C(=O)C(CC(C)C)NS(=O)(=O)c2ccc3c(c2)oc(=O)n3C)CC1 (stereo unspecified)	x	4	7	i	-9	3	4	x
COc1ccc(OC)c(CN2CCN(C(=O)c3cccc(S(=O)(=O)Nc4ccccc4OC)c3)CC2)c1	-2	-13	x	i	x	-4	0	x
CCC(C)c1ccc(C(C)NC(=S)NCc2ccc(F)cc2)cc1 (stereo unspecified)	39	36	-20	i	5	-6	-7	-33
CCC(CC)NC(=O)c1ccc2c(c1)OCCO2	-39	1	-15	i	0	-1	1	-9
O=C(Nc1ccc(Br)cc1F)c1ccc2c(c1)N(Cc1ccccc1)C(=O)CS2=O (stereo unspecified)	-31	8	-2	i	2	-5	-9	-11
O=C(Nc1ccc(Br)cc1)c1cccc(N2C(=O)C3C4CCC(C4)C3C2=O)c1 (stereo unspecified)	30	12	11	i	-6	-2	-18	-7
Cn1c(N2C(=O)CC(Cc3ccccc3)C2=O)nc2ccccc21 (stereo unspecified)	x	-8	-2	i	2	2	6	-21
O=C(CN1C(=O)c2cccc3cccc1c23)NCc1cccnc1	x	-8	-8	i	-12	1	1	-9
CN1CCN(S(=O)(=O)c2cccc(C(=O)N(Cc3ccccc3)c3ccccc3)c2)CC1	11	11	1	i	10	x	x	-10
The results go on.
SMILES	HIV Env fusion	CSC inhib	PABP FP inh	Rce1 inh	eIF4H FP inh	MT1-MMP act inh	MT1-MMP act inh RFP	UUG fidelity
CCNC(=O)C1CC(=O)OC12CCCCC2 (stereo unspecified)	-55	-10	-6	i	-9	-4	-2	-6
COc1ccccc1NC(=O)C1=C(C)Nc2nc(-c3cccs3)nn2C1c1cccc(O)c1 (stereo unspecified)	-2	-3	-5	i	6	3	-7	-13
Cc1nc2ccccc2c(=O)n1/N=C/c1ccccc1OC(F)F	1	-11	-13	i	-5	-1	-2	-16
CCC(NC(=O)C(C)NC)C(=O)N1CCCC1C(=O)NC1CCCc2ccccc21 (stereo unspecified)	-97	0	x	x	x	12	9	-2
C=C(C)C(=O)N1CC2(CC(c3cccc(NC(=O)CC(c4ccccc4)c4ccccc4)c3)=NO2)C[C@H]1C(N)=O (stereo partly specified)	6	14	13	i	2	-2	0	4
CCOc1ccc(C2C=C(c3ccc(C)cc3)Nc3ncnn32)cc1 (stereo unspecified)	x	-11	33	i	25	x	x	x
CC1(C)ON=C(c2ccc(C(F)(F)F)cc2)NC1=O	-5	x	x	x	x	-1	1	-18
COc1cccc(-c2cc3nc(NCc4ccc(C)cc4C)n(C)c(=O)c3s2)c1	-3	x	x	x	x	-6	-25	-17
O=C(CSc1n[nH]c(=O)n1Cc1ccco1)Nc1ccccc1	-8	-4	-9	i	-2	2	2	-2
Cc1cccc(NC(=O)c2cc(Cl)nc3ccccc23)c1	-21	6	1	i	-6	12	0	-26
O=C(CSc1nnc(-c2cccnc2)s1)Nc1cccc(C(=O)O)c1	x	-10	7	i	-3	1	2	-13
COc1ccc(C2(CNC(=O)C(c3ccccc3)c3ccccc3)CCOCC2)cc1OC	x	-9	2	i	-11	-1	1	4
Cc1ccccc1N1C(=O)C(Oc2ccc(Cl)cc2)C1CNC(C)(C)C (stereo unspecified)	x	-5	11	i	-9	-3	2	5
Cc1cccc(CNC(=O)CCc2nnc(C3CCCCC3)o2)c1	-2	1	2	i	-8	2	3	6
C=CCNc1nc(NC(C)(C)CO)nc(OC)n1	x	-4	-5	x	7	-6	2	-9
